Source: PubChem
D2 potentiator: Beta-Arrestin HTS for Positive Allosteric Modulators of the Human D2 Dopamine Receptor: Potentiators; D(2) dopamine receptor (Homo sapiens), P14416; DiscoveRx D2 beta-arrestin cells, luminescence, 90 min; 100% = 57 uM dopamine signal; potentiation, % (test concentration not listed); 360,000 compounds, 0.23% hits; AID 624464, 2012; active = potentiation of 50% or more; inconclusive = 30% to 50%; inactive = 30% or less;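 also: compound concentration not given in the record; tested on top of an EC20 dose of dopamine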
Target sequence (P14416 whole entry, looked up): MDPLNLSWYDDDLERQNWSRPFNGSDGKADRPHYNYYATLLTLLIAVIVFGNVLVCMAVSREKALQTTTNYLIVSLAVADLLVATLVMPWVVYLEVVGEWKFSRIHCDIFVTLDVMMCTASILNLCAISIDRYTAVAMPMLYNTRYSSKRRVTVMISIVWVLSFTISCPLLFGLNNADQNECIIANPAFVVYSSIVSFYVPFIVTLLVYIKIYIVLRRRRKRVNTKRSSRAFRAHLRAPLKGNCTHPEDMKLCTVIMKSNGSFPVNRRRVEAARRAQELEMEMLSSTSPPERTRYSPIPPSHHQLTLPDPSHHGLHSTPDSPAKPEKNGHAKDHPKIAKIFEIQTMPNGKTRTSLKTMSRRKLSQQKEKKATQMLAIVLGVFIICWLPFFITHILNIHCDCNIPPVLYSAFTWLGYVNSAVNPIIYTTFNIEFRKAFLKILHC
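PathHunter beta-arrestin assay in DiscoveRx D2 cells. Compounds were added with an EC20 of dopamine (50 nM final) for 90 min at 37 deg C. Luminescence was read 1 h after detection reagent, with 57 uM dopamine as the EC100 control.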
TRPML1 agonist: qHTS for Agonists of the Human Mucolipin Transient Receptor Potential 1 (TRPML1); TRPML1-expressing cells, Ca2+ dye fluorescence, FDSS; host cell line not named in the record; reference of the full effect not given here; 410,000 compounds, 0.12% hits; AID 624414, 2012; Mucolipin-1 (Homo sapiens), Q9GZU1; activation, % (test concentration not listed); in the data active = activation above about 50%; inconclusive = about 30% to 50%; inactive = below about 30%; also: 0% is about no effect; the text of the record puts the active cut at 80%
Target sequence (Q9GZU1 whole entry, looked up): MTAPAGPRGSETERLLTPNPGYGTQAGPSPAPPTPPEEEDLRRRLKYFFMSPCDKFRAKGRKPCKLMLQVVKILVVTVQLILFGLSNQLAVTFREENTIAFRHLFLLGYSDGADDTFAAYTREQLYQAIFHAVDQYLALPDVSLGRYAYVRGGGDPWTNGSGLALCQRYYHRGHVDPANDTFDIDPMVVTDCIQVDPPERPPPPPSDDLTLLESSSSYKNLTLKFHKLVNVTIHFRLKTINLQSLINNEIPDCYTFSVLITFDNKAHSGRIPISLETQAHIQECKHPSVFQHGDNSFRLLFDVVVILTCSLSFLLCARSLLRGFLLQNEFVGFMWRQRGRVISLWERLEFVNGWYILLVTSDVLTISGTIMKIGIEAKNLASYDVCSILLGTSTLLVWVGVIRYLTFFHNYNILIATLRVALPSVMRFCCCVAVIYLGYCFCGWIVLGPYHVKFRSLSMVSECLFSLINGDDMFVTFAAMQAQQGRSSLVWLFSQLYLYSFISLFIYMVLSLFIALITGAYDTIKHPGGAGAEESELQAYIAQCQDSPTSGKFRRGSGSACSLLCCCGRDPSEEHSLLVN
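TRPML1-DL cells, Tet-induced overnight (~16 h, 37 degrees C), loaded 45-90 min at room temperature with Ca8 no-wash calcium dye plus quencher. FDSS fluorescence: 10 s baseline, compound pin-transfer, 110 s agonist read, then EC80 54-4 (4uM final) and 110 s antagonist read.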
TRPV1 potentiator: HTS Assay for Compounds that Act as Potentiators of the Vanilloid Receptor 1; TRPV1-expressing cells, Fluo-8 calcium influx, capsaicin EC20 potentiation; host cell line not named in the record; control for the full effect not named in the record; potentiation, % at 8.33 µM; 320,000 compounds, 0.02% hits; Transient receptor potential cation channel subfamily V member 1 (Homo sapiens), Q8NER1; active means potentiation above 80%; inconclusive means 30% to 80%; inactive means below 30%; also: 0% is about no effect
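Fluo-8 calcium influx in TRPV1-expressing cells, kinetic read (ex 480/em 520 nm). Compound added and read 3 min for agonist activity, followed by capsaicin at EC20 final and 2 min further read for enhancement.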
Six1-Eya2 inh: qHTS Assay for Inhibitors of the Six1/Eya2 Interaction; Homeobox protein SIX1 (Homo sapiens) + Protein phosphatase EYA2 (Homo sapiens), …; AlphaScreen GST-Six1/His-Eya2 binding, biochemical; active compounds read low; control for the full effect not named in the record; activity change, % (test concentration not listed); 360,000 compounds, 0.56% hits; AID 651725, 2012; in the data active = activity change below about -65%; inconclusive = about -30% to -65%; inactive = above about -30%; also: % is scaled to controls: 0 for no effect and ±100 for the full control effect
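AlphaScreen with GST-Six1 and His-Eya2 (5X mix: 250 nM and 500 nM), glutathione donor and nickel acceptor beads; buffer 50 mM Tris pH 8.0, 300 mM NaCl, 1 mM TCEP; 1 h at 37 C in the dark.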
TRPML1 blocker: qHTS for Inhibitors of the Human Mucolipin Transient Receptor Potential 1 (TRPML1). AID 624415, 2012. TRPML1-inducible cells, Ca2+ dye fluorescence, FDSS; active compounds read low; inhibition of EC80 agonist-evoked calcium signal. activity change, negative = inhibition, % (concentration not given with the values). 390,000 compounds, 0.02% hits; in the data active means activity change below about -50%; inconclusive means about -30% to -50%; inactive means above about -30%;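 also: stimulus is agonist 54-4 at its EC80 concentration; % is scaled to controls: 0 for no effect and ±100 for the full control effect; the text of the record puts the active cut at -80%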
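Tet-induced TRPML1-DL cells loaded with Ca8 no-wash calcium dye were read kinetically on FDSS. Compound addition was followed by EC80 agonist 54-4 (4 uM final); inhibition was read over 110 s.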
CtBP-E1A inh: qHTS Assay for Inhibitors of the CtBP/E1A Interaction; CtBP / adenovirus E1A interaction (AlphaScreen); AlphaScreen GST-E1A/His-CtBP binding, 1536-well; active compounds read low; control for the full effect not named in the record; activity change, % (concentration not given with the values); 340,000 compounds, 0.49% hits; in the data active means activity change below about -65%; inconclusive means about -30% to -65%; inactive means above about -30%; also: % is scaled to controls: 0 for no effect and ±100 for the full control effect
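AlphaScreen with 125 nM GST-E1A and 125 nM His-CtBP (5X stocks) in Tris pH 8.0, 300 mM NaCl, BSA, Tween 20, TCEP. Compounds preincubated 2 h at 37 deg C, then glutathione donor/nickel acceptor beads added for 1 h at 37 deg C in dark.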
Numbers without * were called inactive; ? = inconclusive; . = not tested or not shown.

no.	Compound	D2 potentiator	TRPML1 agonist	TRPV1 potentiator
1	CN1CCN(C2=NC(=O)/C(=C/c3ccccc3OS(=O)(=O)c3ccccc3)S2)CC1	-22	0.4	-8
2	CCOC(=O)c1c(NC(=O)c2ccccc2)sc2c(O)c(CN(CC)CC)ccc12	-8	0.0	1
3	Cc1ccc(S(=O)(=O)n2nc(OC(=O)c3cccc(F)c3)cc2N)cc1	-8	1.5	-5
4	Cc1cccc(NC(=O)CSc2nc(N)cc(N)n2)c1	2	-0.7	-10
5	CC(C)CC1NC(=S)N(Cc2ccccc2)C1=O (stereo unspecified)	-14	-1.4	23
6	O=C(Cn1cnc2ccccc2c1=O)N1CCN(S(=O)(=O)c2ccc(F)cc2)CC1	-3	0.2	7
7	COC(=O)c1cccc(NC(=O)c2onc3c2CCCC3)c1	-16	0.1	-10
8	Cn1cccc1/C=N/N1CCN(c2ccccc2)CC1	-7	1.4	-15
9	CS(=O)(=O)N(CC(=O)NC1CCCCC1)Cc1ccc(Cl)cc1	-10	1.3	-15
10	CCOc1ccc(NC(=O)CSc2nc(C3CC3)nc3ccccc23)cc1	-1	1.2	5
11	CCN(CC(=O)Nc1c(F)cccc1F)C(=O)c1c(-c2ccccc2Cl)noc1C	-19	0.2	.
12	COc1ccc(OC)c(NC(=O)CSC2=C(C#N)C(c3ccco3)C3=C(CCCC3=O)N2)c1 (stereo unspecified)	-15	-0.5	3

no.	Six1-Eya2 inh	TRPML1 blocker	CtBP-E1A inh
1	-7	-2	-10
2	-1	2	1
3	-22	5	0
4	-3	32	-2
5	3	0	.
6	-1	-6	1
7	-2	1	20
8	-20	18	.
9	7	-17	11
10	-3	-18	7
11	3	-5	-11
12	-29	13	-5

Along the list, quoted from above.
Entries 3–12 in TRPV1 potentiator: -5, -10, 23, 7, -10, -15, -15, 5, ., 3

Individual results from the list:
D2 potentiator result of cpd 3 stands at -8
CtBP-E1A inh result of cpd 9 stands at 11

The listing picks up; the five compounds before the break are reprinted first.
no.	Compound	D2 potentiator	TRPML1 agonist	TRPV1 potentiator
8	Cn1cccc1/C=N/N1CCN(c2ccccc2)CC1	-7	1.4	-15
9	CS(=O)(=O)N(CC(=O)NC1CCCCC1)Cc1ccc(Cl)cc1	-10	1.3	-15
10	CCOc1ccc(NC(=O)CSc2nc(C3CC3)nc3ccccc23)cc1	-1	1.2	5
11	CCN(CC(=O)Nc1c(F)cccc1F)C(=O)c1c(-c2ccccc2Cl)noc1C	-19	0.2	.
12	COc1ccc(OC)c(NC(=O)CSC2=C(C#N)C(c3ccco3)C3=C(CCCC3=O)N2)c1 (stereo unspecified)	-15	-0.5	3
13	CCN(CC)S(=O)(=O)c1ccc(NC(=O)C2c3ccccc3Oc3ccccc32)cc1	-4	4.2	13
14	Cn1ncc(Br)c1C(=O)N1CCN(C(=O)c2ccco2)CC1	-7	0.1	10
15	CC(C)(C)NC(=O)CN(C(=O)C(=O)Nc1ccc2c(c1)OCCO2)C(C)(C)C	-3	-0.2	-1
16	CCc1ccc(CNc2ccc3c(c2)ncn3CC)cc1	-11	4.6	2
17	CCn1c(SCc2nc3ccccc3[nH]2)nnc1-c1ccc(OC)cc1	-13	-0.6	7
18	Cc1nc(NC(=O)CN2CCOCC2)sc1C(=O)N(C)C	-4	0.4	0
19	O=C(c1cc(=O)[nH]c2ccccc12)N1CCN(S(=O)(=O)c2ccc(Cl)cc2)CC1	20	2.1	10
20	CCOC(=O)c1cc(C#N)c(N2CCN(C)CC2)nc1-c1ccccc1	-18	-0.6	-37
21	O=C(Nc1ccc(S(=O)(=O)N2CCOCC2)cc1)c1cccs1	13	-0.5	-1
22	Fc1ccc(COc2ccc(-c3nnco3)cc2)c(Cl)c1	-1	1.8	-13
23	CCOC(=O)C1C(C)=CC(=O)CC1c1ccco1 (stereo unspecified)	-19	-0.2	-26
24	CCOc1ccccc1NC(=O)Cn1nnc(C(=O)NCCc2ccc(OC)c(OC)c2)c1N	4	5.3	2

no.	Six1-Eya2 inh	TRPML1 blocker	CtBP-E1A inh
8	-20	18	.
9	7	-17	11
10	-3	-18	7
11	3	-5	-11
12	-29	13	-5
13	-7	-8	-17
14	0	20	0
15	6	-22	0
16	-16	-1	-21
17	-3	-3	-4
18	13	6	7
19	-1	-17	2
20	-3	11	-5
21	-2	-6	0
22	19	63	24
23	-10	-14	-2
24	0	13	0

Next part.
no.	Compound	D2 potentiator	TRPML1 agonist	TRPV1 potentiator
25	O=C(/C=C/Nc1ccc(F)cc1F)c1ccco1	-5	0.0	-10
26	O=[N+]([O-])c1cc(C(F)(F)F)ccc1NCCCN1CCOCC1	-24	0.1	-4
27	C[C@H](NC(=O)NCCc1ccccc1)C(=O)O	-10	-0.1	1
28	COc1cccc(NC(=O)CN(C)C(=O)c2cn(-c3ccccc3)nc2-c2cccs2)c1	-23	2.7	-6
29	CN(C)c1ccc(/C=C/C=N/Nc2nc(N3CCOCC3)nc(N3CCOCC3)n2)cc1	2	1.4	-21
30	COCCOC(=O)C1=C(C)NC2=C(C(=O)CCC2)C1c1cc2c(cc1Br)OCO2 (stereo unspecified)	5	0.4	8
31	COc1ccc(C(C(=O)NCC2CCCO2)N(Cc2ccccc2)C(=O)c2snc(C(N)=O)c2N)cc1OC (stereo unspecified)	8	1.5	-2
32	CCOC(=O)C1CCN(Cc2ccccc2C(F)(F)F)CC1	-1	3.0	0
33	Cc1ccc(Cl)cc1N1CCN(C(=O)Cc2c(C(=O)O)[nH]c3ccccc23)CC1	-9	0.3	-1
34	COc1ccccc1NC(=O)CSc1nnc(Cc2ccccc2)o1	-9	0.8	23
35	O=C(O)/C=C/C(=O)N1CCN(c2ccccc2F)CC1	-21	-0.2	8
36	O=C1NC[C@H](CCCCN2C[C@H](Cc3ccccc3)N(CCc3ccc(O)cc3)C(=O)C2=O)N(CCC2CCCCC2)C1=O	.	-0.6	.

no.	Six1-Eya2 inh	TRPML1 blocker	CtBP-E1A inh
25	-3	1	-2
26	-5	6	-10
27	6	-7	5
28	4	3	-2
29	1	-20	.
30	0	-11	13
31	8	19	11
32	12	-3	10
33	0	22	0
34	3	0	8
35	5	-21	12
36	-11	.	-6

Other compounds.
no.	Compound	D2 potentiator	TRPML1 agonist	TRPV1 potentiator
37	COc1ccccc1NC(=S)NNC(=O)c1ccncc1	-4	-0.9	-1
38	CC1(C)CC(=O)C2=C(C1)NC1=C(C(=O)c3ccccc31)C2c1ccc(O)cc1 (stereo unspecified)	-18	2.0	13
39	CC(CNc1ccc([N+](=O)[O-])cc1)NC(=O)c1ccccc1Br (stereo unspecified)	-10	-0.4	5
40	COc1cccc(CNS(=O)(=O)c2c(C)nc3sccn3c2=O)c1	-3	-0.6	-21
41	O=C1CSC(c2ccc(Cl)cc2)N1Nc1nc(N2CCOCC2)nc(N2CCOCC2)n1 (stereo unspecified)	-5	1.3	-13
42	Cc1cccc(CN2CCN(C3CN(Cc4ccccc4)S(=O)(=O)C3)CC2)c1 (stereo unspecified)	-14	-0.6	.
43	COC(=O)Cc1nc(Nc2ccccc2)sc1C	-5	0.4	.
44	CC(=O)c1ccc(NC(=O)c2cc(C)nc3ccccc23)cc1	-3	-0.2	4
45	CCOC(=O)c1ccc(N2C(=O)C3ON(c4ccccc4)C(c4ccco4)C3C2=O)cc1 (stereo unspecified)	-5	0.8	.
46	COc1ccc(Cl)cc1NC(=O)CCN1CCOCC1	-14	-0.2	2
47	O=C(Nc1ccc2nc3n(c(=O)c2c1)CCCCC3)c1ccccc1[N+](=O)[O-]	-8	0.5	6
48	CC(Sc1nnc(-c2cccnc2)n1-c1ccccc1)C(=O)NCc1ccc2c(c1)OCO2 (stereo unspecified)	-12	-0.1	-21

no.	Six1-Eya2 inh	TRPML1 blocker	CtBP-E1A inh
37	-1	-11	-2
38	?	-14	?
39	1	25	7
40	3	16	-1
41	-3	11	4
42	2	.	0
43	-3	8	-5
44	-6	-6	1
45	-2	22	0
46	20	-11	0
47	-12	1	-23
48	-2	0	0

Other compounds follow:
no.	Compound	D2 potentiator	TRPML1 agonist	TRPV1 potentiator
49	Nc1nc(SCC(=O)Nc2ccccc2Sc2ccccc2)n[nH]1	-3	1.9	22
50	NC(=S)Cc1nc(-c2ccc(Cl)cc2)cs1	-20	2.6	-3
51	CCO[C@H]1c2c(ccc3ccc(=O)oc23)OC(C)(C)[C@H]1O	-12	-0.3	.
52	CCc1nc2ccccc2c(C(=O)Oc2ccc(C(=O)OC)cc2)c1C	-5	0.3	2
53	CCOc1cc(/C=N/NC(=O)c2nn(C)cc2Br)ccc1OCc1ccccc1	2	-1.1	6
54	O=C(Nc1ccccc1Cl)N1CCCN(c2nc(-c3ccccc3)ns2)CC1	-7	4.4	-4
55	O=C(CN(C(=O)CNC(=O)c1cccs1)c1cccc(F)c1)NC1CCCC1	-2	0.5	-1
56	O=C(NCCC(F)(F)F)C1Cc2c(-c3ccccc3Oc3ccccc3)ccnc2O1 (stereo unspecified)	-7	?	.
57	Nn1c(SCC(=O)Nc2ccc(N3CCOCC3)cc2)nnc1-c1cccc(F)c1	-3	-0.5	-20
58	COC(=O)CNC(=O)c1ccccc1	-22	.	.

no.	Six1-Eya2 inh	TRPML1 blocker	CtBP-E1A inh
49	0	27	1
50	-1	-17	0
51	8	0	1
52	10	2	4
53	-2	-8	7
54	3	-9	9
55	2	2	0
56	-2	-21	-3
57	-1	-12	2
58	-6	.	1
